FGF22 binding – binders of recombinant human FGF22 by thermal shift. Q9HCT0. SYPRO orange fluorescence; percent of sucrose octasulfate shift, DMSO zero. calls only at 9.99 µM. 340,000 tested, 1.5% active;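 active means melting point raised past a set limit in the mean and every replicate; three in four hits are not shown here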
Target sequence (Q9HCT0 whole entry, looked up): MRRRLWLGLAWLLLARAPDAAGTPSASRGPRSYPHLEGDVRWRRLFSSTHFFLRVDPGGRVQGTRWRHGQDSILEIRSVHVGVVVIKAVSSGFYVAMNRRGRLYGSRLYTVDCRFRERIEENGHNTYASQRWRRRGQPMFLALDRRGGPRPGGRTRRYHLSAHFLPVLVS
AF4-AF9 inh – blocks AF4 peptide binding to human AF9 | P42568 | AlphaScreen, biotin-AF4 peptide binding to FLAG-AF9 | inhibition, % at 10 µM | 350,000 tested, 0.47% active | AID 651704;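 active means every replicate reaching a set inhibition limit, whatever the replicate mean, cut at about 25% in these data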;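 further: 0% = plate neutral control median and 100% = total signal loss; the record names both 10 and 1 µM as test concentration; the first replicate is given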
Target sequence (P42568 whole entry, looked up): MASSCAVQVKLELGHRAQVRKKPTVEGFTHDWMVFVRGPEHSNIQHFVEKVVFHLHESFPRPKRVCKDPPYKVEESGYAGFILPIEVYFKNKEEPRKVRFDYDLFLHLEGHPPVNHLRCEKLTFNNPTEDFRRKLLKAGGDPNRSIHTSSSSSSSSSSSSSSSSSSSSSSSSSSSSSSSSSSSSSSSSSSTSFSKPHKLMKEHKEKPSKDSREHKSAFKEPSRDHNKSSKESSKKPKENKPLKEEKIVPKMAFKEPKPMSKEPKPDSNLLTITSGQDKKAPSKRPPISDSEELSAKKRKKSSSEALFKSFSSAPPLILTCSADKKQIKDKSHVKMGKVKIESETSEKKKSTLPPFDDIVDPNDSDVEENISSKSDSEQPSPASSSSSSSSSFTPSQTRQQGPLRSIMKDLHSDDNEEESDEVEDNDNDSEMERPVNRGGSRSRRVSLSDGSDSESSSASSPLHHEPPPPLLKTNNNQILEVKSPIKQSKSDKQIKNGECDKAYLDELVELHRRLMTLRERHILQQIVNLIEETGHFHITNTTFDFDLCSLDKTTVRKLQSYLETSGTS
* marks the source's active call; other numbers are inactive results; i = inactive; + = active, no number. An excerpt (hit frequency here may not be typical).

SMILES	FGF22 binding	AF4-AF9 inh
C[C@@H]1CCCCO[C@H](CN(C)C(=O)Cc2ccccc2)[C@@H](C)CN([C@H](C)CO)C(=O)c2cc(NC(=O)CCCN(C)C)ccc2O1	i	-3.2
CCCCCCCCN	i	-1.2
CC(=O)N1CCCCN2[C@H](C1)[C@@H](c1ccc(-c3ccc(C)cc3)cc1)[C@@H]2CO	i	-5.4
CCC(=O)Nc1ccc2c(c1)C(=O)N(C)C[C@@H](OC)[C@H](C)CN[C@@H](C)CO2	i	-3.6
Cc1cccc(S(=O)(=O)N2C[C@@H](O)COC[C@H]3O[C@H](CC(=O)NCc4ccc5c(c4)OCO5)CC[C@@H]32)c1	i	8.5
O=C(C[C@H]1C[C@H]2c3cc(NC(=O)C4CCOCC4)ccc3O[C@H]2[C@H](CO)O1)NCc1ccc(Oc2ccccc2)cc1	i	0.9
CC(=O)N(C)C[C@@H]1[C@@H](c2ccc(-c3cccc(C#N)c3)cc2)[C@H](CO)N1C(C)=O	i	0.4
CCCC#Cc1cnc2c(c1)C(=O)N([C@@H](C)CO)C[C@@H](C)[C@@H](CN(C)Cc1ccc(F)cc1)O2	i	1.4
C[C@H](CO)N1C[C@H](C)[C@H](CN(C)Cc2ccc(C(=O)O)cc2)OCCCC[C@H](C)Oc2ccc(NC(=O)c3ccncc3)cc2C1=O	i	-1.6
N#C[C@H]1[C@@H](c2ccccc2)[C@H](CO)N1C(=O)c1cc(Cl)cc(Cl)c1	i	0.9
Cc1noc(C)c1S(=O)(=O)Nc1ccc2c(c1)C(=O)N([C@H](C)CO)C[C@@H](C)[C@@H](CN(C)S(=O)(=O)c1ccc(F)cc1)O2	i	-1.9
CCN1[C@@H]2Cn3c(ccc(-c4ccccc4F)c3=O)[C@H]1[C@@H](C(=O)NCCOC)[C@@H]2CO	i	0.7
O=C(NC[C@@H]1N[C@@H](CO)[C@H]1c1ccc(-c2cccnc2)cc1)C1CCCC1	i	0.2
Cc1ccc(S(=O)(=O)Nc2ccc3c(c2)C(=O)N([C@H](C)CO)C[C@H](C)[C@@H](CN(C)Cc2ccncc2)O3)cc1	i	0.2
C[C@@H]1CN([C@H](C)CO)C(=O)c2cc(NC(=O)CCCN(C)C)ccc2O[C@@H]1CN(C)C(=O)Nc1ccc(F)cc1	i	-3.5
C[C@@H]1CN([C@H](C)CO)C(=O)c2cc(-c3cccc(C(=O)N(C)C)c3)cnc2O[C@@H]1CN(C)S(=O)(=O)c1ccc(F)cc1	i	-5.6
C[C@@H]1CCCCO[C@@H](CN(C)S(C)(=O)=O)[C@H](C)CN([C@H](C)CO)C(=O)c2cc(NC(=O)Nc3ccc4c(c3)OCO4)ccc2O1	i	-0.8
COc1ccc(S(=O)(=O)Nc2ccc3c(c2)C(=O)N([C@H](C)CO)C[C@@H](C)[C@@H](CN(C)C(=O)NC2CCCCC2)OCCCC[C@H](C)O3)cc1	i	-0.8
COc1ccc(-c2ccc([C@@H]3[C@@H](CO)N4C(=O)CN(C(=O)C5CC5)C[C@@H]34)cc2)cc1	i	-2.9
CCCN(C)C[C@H]1OCCCC[C@@H](C)Oc2ccc(NC(=O)NC3CCCCC3)cc2C(=O)N([C@@H](C)CO)C[C@H]1C	i	-5.1
C[C@@H]1CN([C@H](C)CO)C(=O)Cc2cc(NC(=O)c3ccncc3)ccc2O[C@H]1CN(C)C(=O)Nc1ccc2c(c1)OCO2	i	-0.4
C[C@@H]1CCCCO[C@@H](CN(C)C(=O)CCC(F)(F)F)[C@@H](C)CN([C@@H](C)CO)C(=O)c2cc(NS(=O)(=O)c3cn(C)cn3)ccc2O1	i	-0.3
C[C@@H]1CCCCO[C@H](CN(C)C)[C@H](C)CN([C@H](C)CO)C(=O)c2cc(NS(=O)(=O)c3cn(C)cn3)ccc2O1	i	-10.5
COCc1cn(CC[C@H]2CC[C@@H](NC(=O)c3ccccc3)[C@H](CO)O2)nn1	i	-1.0
C[C@@H]1CN([C@@H](C)CO)C(=O)c2cc(/C=C/c3ccccc3)cnc2O[C@@H]1CN(C)Cc1cncnc1	i	2.1
O=C(N[C@@H]1C=C[C@@H](CC(=O)N2CCOCC2)O[C@H]1CO)c1cccc(F)c1	i	-1.4
CC(C)NC(=O)N(C)C[C@@H]1Oc2ccc(NC(=O)Nc3cccc4ccccc34)cc2C(=O)N([C@H](C)CO)C[C@H]1C	i	-1.4
O=S(=O)(NCC[C@H]1CC[C@@H](NS(=O)(=O)c2ccccc2Cl)[C@@H](CO)O1)c1ccc(F)cc1	i	-2.0
OC[C@@H]1Nc2ccc(-c3cccc(F)c3)cc2[C@@H]2[C@H]1CCN2Cc1ccc(F)cc1	i	-2.9
CN(C)C(=O)[C@@H]1[C@@H](CO)[C@@H]2Cn3c(ccc(-c4cccc(F)c4)c3=O)[C@H]1N2CC1CC1	i	-1.9

Ordered by formula weight (lowest first): 5 of the compounds above
SMILES	FGF22 binding	AF4-AF9 inh
COCc1cn(CC[C@H]2CC[C@@H](NC(=O)c3ccccc3)[C@H](CO)O2)nn1	i	-1.0
COc1ccc(-c2ccc([C@@H]3[C@@H](CO)N4C(=O)CN(C(=O)C5CC5)C[C@@H]34)cc2)cc1	i	-2.9
CC(C)NC(=O)N(C)C[C@@H]1Oc2ccc(NC(=O)Nc3cccc4ccccc34)cc2C(=O)N([C@H](C)CO)C[C@H]1C	i	-1.4
CCCN(C)C[C@H]1OCCCC[C@@H](C)Oc2ccc(NC(=O)NC3CCCCC3)cc2C(=O)N([C@@H](C)CO)C[C@H]1C	i	-5.1
C[C@@H]1CCCCO[C@@H](CN(C)S(C)(=O)=O)[C@H](C)CN([C@H](C)CO)C(=O)c2cc(NC(=O)Nc3ccc4c(c3)OCO4)ccc2O1	i	-0.8

The list continues:
SMILES	FGF22 binding	AF4-AF9 inh
CNC[C@H]1Oc2ccc(NS(=O)(=O)c3ccc(F)cc3)cc2CC(=O)N([C@@H](C)CO)C[C@@H]1C	i	-2.5
O=C(C[C@@H]1CC[C@H](NC(=O)c2ccccc2)[C@@H](CO)O1)NCc1ccncn1	i	-0.4
CO[C@@H]1CN(C)C(=O)c2ccc(NC(=O)C3CCCCC3)cc2OC[C@H](C)N(C(=O)c2ccccc2)C[C@H]1C	i	-1.0
COc1ccc(C[C@H]2CCn3cc(nn3)COC[C@H](CC(C)C)NC2=O)cc1	i	-2.5
CN1c2ccc(-c3cccc(F)c3)cc2[C@@H]2[C@@H](CCN2C(=O)Cc2cccnc2)[C@H]1CO	i	0.5
O=C(Nc1ccccc1F)N[C@@H]1CC[C@H](CC(=O)N2CCCCC2)O[C@H]1CO	i	-3.8
C[C@H]1CN([C@@H](C)CO)C(=O)Cc2cc(NC(=O)C3CCCCC3)ccc2O[C@@H]1CN(C)C(=O)Nc1ccc(F)cc1	i	-2.4
O=C(C[C@H]1C[C@@H]2c3cc(NC(=O)C4CCOCC4)ccc3O[C@@H]2[C@H](CO)O1)NCc1ccncc1	i	-1.8
C[C@@H]1CCCCO[C@H](CN(C)Cc2ccc(C(F)(F)F)cc2)[C@H](C)CN([C@@H](C)CO)C(=O)c2cc(NC(=O)NC3CCCCC3)ccc2O1	i	-0.1
CC(=O)N1CC[C@@H]2[C@H](CO)Nc3ccc(C#Cc4cccnc4)cc3[C@@H]21	i	0.8
COc1ccc(S(=O)(=O)Nc2cccc3c2O[C@@H](CN(C)C(=O)Nc2ccc(C(F)(F)F)cc2)[C@H](C)CN([C@@H](C)CO)C3=O)cc1	i	-0.4
C[C@H](CO)N1C[C@H](C)[C@H](CN(C)Cc2ccccc2F)Oc2ncc(C3=CCCC3)cc2C1=O	i	-3.3
C[C@@H]1CN([C@@H](C)CO)C(=O)c2cc(NS(=O)(=O)c3ccc(F)cc3)ccc2O[C@@H](C)CCCCO[C@H]1CN(C)Cc1ccc(C(F)(F)F)cc1	i	-1.6
C[C@@H]1CN([C@@H](C)CO)C(=O)c2cc(NC(=O)C3CCCCC3)ccc2O[C@H]1CN(C)C(=O)Nc1cccc2ccccc12	i	0.3
O=C(Cc1ccccc1)N1C[C@H]2[C@@H](c3ccccc31)[C@H](CO)N2S(=O)(=O)c1ccccc1	i	-1.2
CO[C@H]1CN(C)C(=O)c2ccc(NC(=O)Nc3ccccc3F)cc2OC[C@@H](C)NC[C@H]1C	i	-2.4
O=C(C[C@H]1CC[C@@H](NC(=O)c2ccccc2)[C@H](CO)O1)NCc1ccncn1	i	-0.4
C[C@@H]1CN([C@H](C)CO)S(=O)(=O)c2ccc(-c3ccc(C(=O)N(C)C)cc3)cc2O[C@@H]1CN(C)C	i	-3.6
C[C@H]1CN([C@@H](C)CO)S(=O)(=O)c2ccc(C3=CCCC3)cc2O[C@H]1CN(C)C(=O)Nc1ccc2c(c1)OCO2	+	4.1
CCCC#Cc1ccc2c(c1)O[C@@H](CN(C)C(=O)Nc1ccc(OC)cc1)[C@H](C)CN([C@H](C)CO)S2(=O)=O	i	3.3
C[C@@H]1CN([C@@H](C)CO)C(=O)c2cccc(NC(=O)C3CCCCC3)c2O[C@@H]1CN(C)C	i	-1.7
CC(=O)N1CC[C@@H]2[C@H]1c1cc(-c3ccc(F)cc3)ccc1N[C@@H]2CO	i	-1.7
COc1ccc(NC(=O)Nc2ccc3c(c2)C(=O)N([C@H](C)CO)C[C@@H](C)[C@H](CN(C)Cc2ccncc2)OCCCC[C@H](C)O3)cc1	i	8.9
CO[C@H]1CN(C)C(=O)c2ccc(NC(=O)Nc3ccccc3)cc2OC[C@@H](C)N(C(=O)CN(C)C)C[C@H]1C	i	6.1
CCC(=O)Nc1ccc2c(c1)C(=O)N(C)C[C@H](OC)[C@@H](C)CN(Cc1cccnc1)[C@H](C)CO2	i	0.0
COc1ccccc1C#Cc1ccc([C@@H]2[C@@H](CO)N3CCCCN(C(=O)C4CCC4)C[C@@H]23)cc1	i	-4.5
CC(C)C#Cc1cnc2c(c1)C(=O)N([C@@H](C)CO)C[C@@H](C)[C@H](CN(C)C(=O)c1cccnc1)O2	i	-2.9
Cc1ccc(S(=O)(=O)Nc2cccc3c2O[C@H](CN(C)Cc2ccc(C(=O)O)cc2)[C@@H](C)CN([C@H](C)CO)C3=O)cc1	i	-0.6
COc1ccc(CN(C)C[C@@H]2Oc3c(NC(=O)Nc4ccc(OC)cc4)cccc3C(=O)N([C@@H](C)CO)C[C@H]2C)cc1	i	0.8
COc1cccc(S(=O)(=O)Nc2ccc3c(c2)[C@H]2C[C@H](CC(=O)NCc4ccccc4F)O[C@@H](CO)[C@H]2O3)c1	i	3.1

Reprinted at random: 3 compounds from above
SMILES	FGF22 binding	AF4-AF9 inh
C[C@@H]1CN([C@@H](C)CO)C(=O)c2cccc(NC(=O)C3CCCCC3)c2O[C@@H]1CN(C)C	i	-1.7
CO[C@H]1CN(C)C(=O)c2ccc(NC(=O)Nc3ccccc3F)cc2OC[C@@H](C)NC[C@H]1C	i	-2.4
C[C@H]1CN([C@@H](C)CO)S(=O)(=O)c2ccc(C3=CCCC3)cc2O[C@H]1CN(C)C(=O)Nc1ccc2c(c1)OCO2	+	4.1

Going on with the list.
SMILES	FGF22 binding	AF4-AF9 inh
O=C(C[C@@H]1C=C[C@@H](NC(=O)Nc2ccc3c(c2)OCO3)[C@@H](CO)O1)NCc1ccccc1	i	-0.3
COc1ccc(NC(=O)N(C)C[C@@H]2Oc3ccc(NS(C)(=O)=O)cc3CC(=O)N([C@H](C)CO)C[C@@H]2C)cc1	i	-1.2
C[C@@H]1CN([C@@H](C)CO)C(=O)c2cc(C#CCC3CCCC3)cnc2O[C@@H]1CN(C)S(=O)(=O)c1cccs1	i	0.9
COCC(=O)Nc1ccc2c(c1)[C@H]1C[C@@H](CC(=O)NCc3ccccc3OC)O[C@H](CO)[C@H]1O2	i	1.4
O=S(=O)(c1ccc(F)cc1)N1C[C@H]2[C@@H](c3ccccc31)[C@@H](CO)N2Cc1ccccc1Cl	i	2.5
COc1ccc2c3c([nH]c2c1)[C@H](CO)N(C(=O)c1ccncc1)CC31CCN(C(=O)c2ccncc2)CC1	i	3.6
CNC[C@H]1Oc2ccc(NC(=O)NC3CCCCC3)cc2C(=O)N([C@@H](C)CO)C[C@@H]1C	i	2.3
COc1ccc(CN(C)C[C@@H]2OCCCC[C@@H](C)Oc3ccc(NS(=O)(=O)c4ccc(F)cc4)cc3C(=O)N([C@H](C)CO)C[C@@H]2C)cc1	i	6.3
COc1ccccc1NC(=O)N(C)C[C@@H]1OCc2ccccc2-c2ccccc2C(=O)N([C@H](C)CO)C[C@H]1C	i	-13.2
COC(=O)C1=C2CC[C@H](CO)NC(=O)N[C@H](Cc3ccccc3)C(=O)NCc3cn(nn3)C[C@@H](Cc3ccccc3)NC(=O)c3oc(c(C(=O)OC)c3C(=O)OC)CC[C@H](CO)NC(=O)N[C@H](Cc3ccccc3)C(=O)NCc3cn(nn3)C[C@@H](Cc3ccccc3)NC(=O)C(=C1C(=O)OC)O2	i	0.4
C[C@@H]1CN([C@H](C)CO)C(=O)c2cc(N(C)C)ccc2O[C@@H]1CN(C)Cc1ccc(C(=O)Nc2ccccc2N)cc1	i	2.8
Cc1ccc(S(=O)(=O)Nc2ccc3c(c2)C(=O)N([C@@H](C)CO)C[C@@H](C)[C@H](CN(C)S(=O)(=O)c2cccs2)OCCCC[C@@H](C)O3)cc1	i	-1.1
CCCC(=O)Nc1ccc2c(c1)OC[C@@H](C)N(Cc1ccncc1)C[C@@H](C)[C@H](OC)CN(C)C2=O	i	-2.0
O=C(C[C@@H]1CC[C@H]2[C@@H](COC[C@H](O)CN2C(=O)c2ccncc2)O1)NC1Cc2ccccc2C1	i	8.0
CCCC(=O)Nc1ccc2c(c1)OC[C@H](C)N(Cc1ccccc1)C[C@H](C)[C@H](OC)CN(C)C2=O	i	0.5
COc1cccc(S(=O)(=O)N[C@@H]2CC[C@@H](CCNC(=O)Cc3ccncc3)O[C@H]2CO)c1	i	0.4
C[C@H](CO)N1C[C@H](C)[C@H](CN(C)Cc2ccc(C(=O)O)cc2)OCCCC[C@H](C)Oc2ccc(NC(=O)Nc3cccc4ccccc34)cc2C1=O	i	-1.1
